# RE007 growth inh: qHTS Assay for Inhibitors of the HIV-1 protein Vpr. actives 0.21% (n = 360,000). S. pombe RE007 Vpr strain, BacTiter-Glo ATP luminescence, 24 h; control for the full effect not named in the record. Potency, µM (doses to about 92.2 µM), inactives show top-dose activity change, negative = less growth. AID 651644, 2012; active = well fitted falling curve with a large enough effect; inconclusive = small, poorly fitted or top-dose-only effect; inactive = no such curve, though single readings can be large or run the other way;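 note: % is set by controls: 0 for no effect and ±100 for the full control effect; nearly all actives have a fitted effect of over 50% in size; the assay follows cell death caused by Vpr and the record does not say whether a fall means rescue or toxicity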
#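 Fission yeast strain RE007, carrying one chromosomally integrated HIV-1 vpr copy, was seeded at OD 0.01 in PMG+AL medium with 23 nL pinned compound. After 24 h at 30 °C and 99% humidity, viability was read by BacTiter-Glo luminescence.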
# SARS PLpro yeast: qHTS of Yeast-based Assay for SARS-CoV PLP; S. cerevisiae expressing SARS-CoV PLpro, growth rescue; control for the full effect not named in the record; Potency, µM (highest dose often 32.9 µM), without a hit: at the highest dose activity, positive = growth rescue; actives 0.19% (n = 330,000); active means well fitted rising curve with a large enough effect; inconclusive means small, poorly fitted or top-dose-only effect; inactive means no such curve, though single readings can be large or run the other way; note: 0% is about no effect; nearly all actives have a fitted effect of over 55% in size; growth read by luminescence after 48 h
# MARV entry inh: qHTS for inhibitors of binding or entry into cells for Marburg Virus. Potency, µM (titrated, usually from 37.8 µM), for inactives: top-dose activity change, negative = inhibition, most hits filed as inhibitors. Marburg virus pseudotyped entry inhibition, cell reporter; control for the full effect not named in the record; about a third of the inactives were read at about 46 µM. AID 540276, 2011. actives 1.8% (n = 300,000); active = well fitted inhibition curve with a large enough effect; inconclusive = small, poorly fitted or top-dose-only effect, or effect the other way; inactive = flat fitted curve, though single readings scatter; tested in HEK293 cells; about a fifth of its hits are not listed in these tables; note: % is set by controls: 0 for no effect and ±100 for the full control effect; luciferase read-out
# 2A StopGo: High Throughput Screening for Foot and Mouth Disease Virus Antivirals. human cells with a luciferase reporter of 2A StopGo recoding; control for the full effect not named in the record. Potency, µM (highest dose often 57.9 µM), for the others: top-dose signal change, negative = less light. actives 1.2% (n = 410,000); active = well fitted falling curve with a large enough effect; inconclusive = small, poorly fitted or top-dose-only effect; inactive = no such curve, though single readings can be large or run the other way; tested in HEK293T cells; note: % is set by controls: 0 for no effect and ±100 for the full control effect; nearly all actives have a fitted effect of over 45% in size; luciferase light after 4 h
# Cruzain noTriton: qHTS Assay for Promiscuous and Specific Inhibitors of Cruzain (without detergent). Cruzipain (Trypanosoma cruzi), P25779. purified cruzain, Z-FR-AMC fluorescence, no detergent. Potency, µM, without a hit: max response, negative = inhibition, hits mostly inhibitors. actives 2.3% (n = 200,000). AID 1476, 2009;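 note: plate controls were enzyme without inhibitor for no effect and buffer without enzyme for full effect; nearly all actives have a fitted effect of over 40% in size; top concentration of the series not given in the record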
# Target sequence (P25779 123-467 limits assumed): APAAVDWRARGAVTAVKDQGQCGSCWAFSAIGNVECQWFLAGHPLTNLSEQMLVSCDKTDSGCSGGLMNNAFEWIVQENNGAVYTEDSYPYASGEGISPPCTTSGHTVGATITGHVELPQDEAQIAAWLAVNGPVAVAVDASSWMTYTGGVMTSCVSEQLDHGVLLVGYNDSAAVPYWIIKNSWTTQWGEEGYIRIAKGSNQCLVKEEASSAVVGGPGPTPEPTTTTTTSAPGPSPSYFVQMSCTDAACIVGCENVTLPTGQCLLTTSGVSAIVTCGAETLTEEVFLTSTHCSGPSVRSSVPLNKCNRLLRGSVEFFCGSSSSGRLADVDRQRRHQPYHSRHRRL
#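 Purified cruzain at 1.5 nM, pre-incubated 15 min with compound at room temperature in 100 mM sodium acetate pH 5.5, 5 mM DTT, 0.00005% Triton X-100. Reaction started with 2 uM Z-FR-AMC; AMC fluorescence increase over 60 s gives rate.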
# LASV entry inh: qHTS for Inhibitors of binding or entry into cells for Lassa Virus | actives 1.2% (n = 300,000) | Potency, µM (titrated, usually from 37.9 µM), without a hit: at the top dose activity change, negative = inhibition, actives largely listed as inhibitors | AID 540256, 2011 | Lassa virus pseudotype entry inhibition, cell reporter; control for the full effect not named in the record; active means well fitted inhibition curve with a large enough effect; inconclusive means small, poorly fitted or top-dose-only effect, or effect the other way; inactive means flat fitted curve, though single readings scatter; tested in HEK293 cells; note: % is set by controls: 0 for no effect and ±100 for the full control effect; nearly all actives have a fitted effect of over 50% in size; luciferase read-out
# NS1 inh: qHTS Assay for Inhibitors of Influenza NS1 Protein Function; S. cerevisiae slowed by influenza A NS1, growth recovery by OD600; Potency, µM (highest dose often 46.1 µM), for the others: top-dose activity, positive = more growth; actives 0.4% (n = 270,000); active means well fitted rising curve with a large enough effect; inconclusive means small, poorly fitted or top-dose-only effect; inactive means no such curve, though single readings can be large or run the other way; note: nearly all actives have a fitted effect of over 50% in size
#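 In this qHTS, NS1 from influenza A is expressed in budding yeast, where it slows growth. Cells are switched from glucose to 2% galactose medium (pH 6.0, -URA), treated with compound, and growth recovery is read at OD600.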
# Cruzain Triton: qHTS Assay for Promiscuous and Specific Inhibitors of Cruzain (with detergent); purified cruzain, Z-FR-AMC fluorescence, 0.01% Triton; actives 0.43% (n = 200,000); Potency, µM, for the others: max response, negative = inhibition, most hits filed as inhibitors; AID 1478, 2009;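 note: plate controls were neutral wells for no effect and buffer without enzyme for full effect; nearly all actives have a fitted effect of over 40% in size; top concentration of the series not given in the record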
#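 Cruzain (1.5 nM) preincubated 15 min at RT with compound in 100 mM sodium acetate pH 5.5, 5 mM DTT, 0.01% Triton X-100. Reaction started with 2 uM Z-FR-AMC; AMC fluorescence (ex 360/em 450 nm) change over 60 s gave rate.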
# An asterisk follows results filed as active; ? = inconclusive; · = not tested or not shown; & = joins results of further samples; [ ] = remark or other dose. Unless noted, calls come from the whole dose curve; as a rule, active = well fitted curve in the direction sought with a large enough effect; inconclusive = small, poorly fitted or top-dose-only effect, or another doubt; inactive = no such curve, though single readings can be large; an effect the other way counts as inactive or inconclusive. Potency is the fitted concentration of half-maximal effect.
SMILES,RE007 growth inh,SARS PLpro yeast,MARV entry inh,2A StopGo,Cruzain noTriton,LASV entry inh,NS1 inh,Cruzain Triton
Cc1cc(C(=O)Nc2sc3c(c2C#N)CCCCC3)cs1,-17%,-1%,?,19%,-19%,-26%,-3%,-1.2%
Cc1ccc2c(CN3CCN(C(=O)c4ccc(Br)cc4)CC3)cc(=O)oc2c1,·,·,13%[46.1 µM],-21%,-8%,-1%[46.1 µM],·,-5.6%
Cc1ccc(COC(=O)c2nn(-c3ccccc3)nc2N)cc1,-6%,-5%,2%[46.1 µM],24%,·,?,·,·
COc1ccc(CNC(=O)C2CCN(C(=O)c3ccccc3)CC2)cc1,2%,5%,·,-15%,·,·,-2%,·
CCOC(=O)c1ccc(NC(=O)c2c(NC(C)=O)sc3c2CCC(C)C3)cc1 (stereo not given),·,·,4%[46.1 µM],-2%,-10%,3%[46.1 µM],·,-1.9%
CCCCOc1ccc(N(CC(=O)NCc2ccccc2)C(=O)c2csnn2)cc1,-3%,-3%,10%[46.1 µM],41%[activator],·,-14%,-6%,·
O=C(N/C=C/c1ccc(Cl)cc1)NCc1ccc(Cl)cc1,11%,-1%,-14%,-13%,8%,5%,-8%,-0.8%
Cc1ccc(C)c(NS(=O)(=O)c2ccc(OCC(=O)N3CCOCC3)cc2)c1,-19%,2%,-7%,-13%,9%,10%,-4%,-2.7%
Cc1ccc(C(=O)O)cc1NC(=O)C1=CSCCO1,0%,-1%,·,0%,·,·,-3%,·
COc1ccc(-n2nc(C(=O)Nc3cccc(C)n3)c3c4ccccc4n(C)c3c2=O)cc1Cl,·,·,12%[46.1 µM],0%,-1%,3%[46.1 µM],·,1.5%
O=C(C1CC(=O)N(c2ccc(F)cc2)C1)N1CCCCC1 (stereo not given),-9%,2%,-5%[46.1 µM],12%,·,28%[46.1 µM],13%,·
C=CCc1c(C)nc(-c2ccccc2)nc1N/N=C/c1ccccc1,?,-29%,·,7%,-5%,·,9%,-15%
CCCCNC(=O)CSc1nc(-c2ccc(OC)cc2)cc(C(F)(F)F)n1,·,·,?,-22%,0%,27%[46.1 µM],·,-3.0%
Cc1nn(C2CCS(=O)(=O)C2)c(Cl)c1/C=C/C(=O)OCC(=O)Nc1ccccc1OC(F)F (stereo not given),-9%,-4%,-10%,?,-4%,-1%,-10%,-9.4%
COc1cccc(CNC(=O)c2nn(C)c3c2CSc2ccccc2-3)c1,·,·,?,6%,4%,?,·,-7.2%
Cc1ccc(-c2n[nH]c(=S)n2/N=C/C=C\c2ccccc2[N+](=O)[O-])cc1,2%,-10%,6%,-17%,-7%,?,4%,-2.8%
CCOC(=O)C1=NN(C(C)=O)C2(CC(=O)N(c3cccc(C)c3)C2=O)C1 (stereo not given),1%,12%,19%,-12%,0%,6%,3%,9.7%
C=CCOC(=O)C1=C(C)NC(SCC(=O)Nc2nccs2)=C(C#N)C1c1ccc(Cl)cc1 (stereo not given),28%,-4%,?,?,1%,-30%,6%,2.0%
CCOC(=O)c1cccc(NS(=O)(=O)c2c(C)nc3sc(C)cn3c2=O)c1,·,·,·,-8%,-4%,16%[46.1 µM],·,-5.5%
COc1cccc(Cn2nnc(C(=O)NCc3ccc(F)cc3)c2N)c1,-1%,5%,·,?,-29%,·,-16%,0.4%

# Some of the entries above, reformatted.
SMILES | RE007 growth inh | SARS PLpro yeast | MARV entry inh | 2A StopGo | Cruzain noTriton | LASV entry inh | NS1 inh | Cruzain Triton
CCOC(=O)c1ccc(NC(=O)c2c(NC(C)=O)sc3c2CCC(C)C3)cc1 (stereo not given) | · | · | 4%[46.1 µM] | -2% | -10% | 3%[46.1 µM] | · | -1.9%
C=CCc1c(C)nc(-c2ccccc2)nc1N/N=C/c1ccccc1 | ? | -29% | · | 7% | -5% | · | 9% | -15%
COc1ccc(CNC(=O)C2CCN(C(=O)c3ccccc3)CC2)cc1 | 2% | 5% | · | -15% | · | · | -2% | ·
CCOC(=O)C1=NN(C(C)=O)C2(CC(=O)N(c3cccc(C)c3)C2=O)C1 (stereo not given) | 1% | 12% | 19% | -12% | 0% | 6% | 3% | 9.7%

# Next section:
SMILES,RE007 growth inh,SARS PLpro yeast,MARV entry inh,2A StopGo,Cruzain noTriton,LASV entry inh,NS1 inh,Cruzain Triton
CCOC(=O)c1cc2cc(OC)ccc2[nH]1,?,0%,2%,14%,0%,?,11%,-5.5%
O=C(NCCCN1CCOCC1)C(=O)NCCc1ccccc1,7%,-3%,-10%[14.2 µM],-5%,·,19%,·,·
CCOP(=O)(OCC)C(NC(C)=O)C(Cl)(Cl)Cl (stereo not given),13%,3%,20%,18%,-19%,0%,-1%,-1.7%
COc1ccc(C2CC(c3ccc(Cl)cc3Cl)n3nc(N)nc3N2)cc1 (stereo not given),-3%,12%,·,-24%,-13%,·,-6%,-3.0%
CCOC(=O)C1=C(c2ccccc2)O/C(=C(/C(=O)OC)C(F)(F)F)S1,-7%,7%,-3%,·,-5%,-4%,4%,-12%
CC(C)c1ccc(C(=O)NNC(=O)c2ccncc2)cc1,-9%,1%,-4%[46.1 µM],10%,·,?,0%,·
COc1ccc(C(CNC(=O)CNC(=O)c2cccc(C)c2)N2CCCCC2)cc1 (stereo not given),6%,·,-5%,-6%,·,-2%,·,·
CCCC(=O)Nc1ccc2c(c1)nc1n2CCSC1,12%,-7%,6%,39%[activator],-5%,20%,-1%,0.0%
CCOC(=O)N1CCC(N(CCN(C)C)C(=S)Nc2cccc(OC)c2)CC1,8%,3%,10%[46.1 µM],4%,·,-16%[46.1 µM],·,·
Cc1c(C(=O)N2CCOCC2)cc(C(C)(C)C)n1-c1ccccc1,-5%,0%,-10%[46.1 µM],-6%,·,?,5%,·
CCOc1ccccc1N(C(=O)c1ccco1)C(C(=O)NC1CCCC1)c1cccs1 (stereo not given),-24%,-1%,?,15%,·,-12%[46.1 µM],-7%,·
COc1cccc(C(=O)N2CCC(C(=O)NCc3ccc(C)cc3)CC2)c1,21%,2%,6%[46.1 µM],-8%,·,?,-2%,·
Cc1cc(-c2csc(N)n2)c(C)n1CCc1ccccc1,-10%,0%,?,11µM*,4µM*,-15%,?,-4.0%
CCn1c(-c2cc(-c3ccccc3OC)nc3ccccc23)n[nH]c1=S,·,-8%,-33%,-22%,-26%,0%,13%,-5.1%
CCN(CCNCC(O)COCc1ccc(Cl)cc1)c1cccc(C)c1 (stereo not given),-5%,-8%,?,?,·,?,·,·
O=[N+]([O-])c1nn(-c2cccc(Cl)c2)n(O)c1=NCc1cccnc1,3%,-20%,?,-9%,5%,1%,-18%,-8.7%
Cc1ccc(-n2nnnc2C(Cl)(Cl)c2nnnn2-c2ccc(C)cc2)cc1,2%,-37%,?,?,-4%,?,-75%,2.3%
CC(C)CN(CC(C)C)C(=O)CC(=O)NC(=O)c1ccc(Cl)cc1,0%,-4%,6%,-9%,-3%,-14%,-18%,2.2%
Cc1ccc(C(=O)NCc2ccco2)cc1S(=O)(=O)Nc1cccc(C)c1C,2%,8%,21µM*,-101%,-12%,?,-10%,-3.8%
CC(Oc1ccccc1)C(=O)Nc1ccc(C(=O)OCc2cc(=O)n3ccsc3n2)cc1 (stereo not given),·,·,·,25µM*,?,?,·,-3.6%

# Quoted from the results shown, 2 compounds:
SMILES,RE007 growth inh,SARS PLpro yeast,MARV entry inh,2A StopGo,Cruzain noTriton,LASV entry inh,NS1 inh,Cruzain Triton
CCOc1ccccc1N(C(=O)c1ccco1)C(C(=O)NC1CCCC1)c1cccs1 (stereo not given),-24%,-1%,?,15%,·,-12%[46.1 µM],-7%,·
COc1cccc(C(=O)N2CCC(C(=O)NCc3ccc(C)cc3)CC2)c1,21%,2%,6%[46.1 µM],-8%,·,?,-2%,·

# New compounds follow
SMILES,RE007 growth inh,SARS PLpro yeast,MARV entry inh,2A StopGo,Cruzain noTriton,LASV entry inh,NS1 inh,Cruzain Triton
CCOc1ccc(NC(=O)c2cc(=O)c3ccc(C)c(C)c3o2)cc1,·,·,0%[46.1 µM],-11%,-5%,-13%[46.1 µM],·,-2.2%
CCCN(Cc1ccccc1)S(=O)(=O)c1ccc(N2C(=O)CCC2=O)cc1,-11%,8%,0%,-19%,?,2%,-14%,-4.4%
CCOC(=O)c1sc2ncn(CC(=O)Nc3ccc(N(C)C)cc3)c(=O)c2c1C,·,·,?,2%,-1%,-2%[46.1 µM],·,0.3%
CCC(C)C(NC(=O)C(C)NC(=O)CNC(=O)CNC(=O)OCc1ccccc1)C(=O)OC (stereo not given),-1%,7%,0%,-12%,30%,-2%,-9%,-2.7%
O=C(COc1ccc(-n2cnnn2)cc1)Nc1ccccc1Cl,2%,-1%,-6%[46.1 µM],15%,·,8%[46.1 µM],-11%,·
CCOC(=O)C1CCN(C(=O)Cn2nc(C)n3c(cc4cc(C)ccc43)c2=O)CC1,15%,10%,?,9%&4%,-2%,6%[46.1 µM],4%,-0.9%
CCOc1ccc(N2C(=O)CC(NCC3CCCO3)C2=O)cc1 (stereo not given),-6%,2%,21%[46.1 µM],0%,·,2%,-3%,·
Cc1cc(C)cc(N(C(C)C(=O)N2CCCC2)S(C)(=O)=O)c1 (stereo not given),-8%,19%,?,-2%,·,17%,1%,·
Cc1cc(C(=O)OCC(=O)NCc2cccs2)c2ccccc2n1,1%,-3%,-6%[46.1 µM],?,·,6%,-4%,·

# Source: PubChem BioAssay
